GIRK2 activ = activators of human GIRK2 potassium channels; calls only for hits at 25 µM; AID 1259325; 63,000 compounds, 0.05% hits; P48051; HEK293-GIRK2 thallium flux, Thallos fluorescence;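 active = among the strongest 0.2% of first-round signals and kept after retests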;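 note: first round at about 10 µM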
Target sequence (P48051 whole entry, looked up): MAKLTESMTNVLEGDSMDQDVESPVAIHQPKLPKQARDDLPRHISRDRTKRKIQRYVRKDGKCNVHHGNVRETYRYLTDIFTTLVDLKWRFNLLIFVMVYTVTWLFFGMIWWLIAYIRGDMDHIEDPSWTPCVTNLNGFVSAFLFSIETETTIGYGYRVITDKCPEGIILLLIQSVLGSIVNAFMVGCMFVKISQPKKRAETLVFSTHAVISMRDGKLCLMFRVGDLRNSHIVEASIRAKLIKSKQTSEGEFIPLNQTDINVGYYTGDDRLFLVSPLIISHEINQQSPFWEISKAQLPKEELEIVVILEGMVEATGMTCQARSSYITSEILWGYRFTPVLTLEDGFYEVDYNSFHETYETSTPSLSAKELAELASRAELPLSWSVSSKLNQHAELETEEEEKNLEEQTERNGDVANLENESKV
Calls only; i = inactive.

SMILES	GIRK2 activ
COc1ccccc1N1CCN(C(=O)CCn2cnc3c([nH]c4ccc(C)cc43)c2=O)CC1	i
O=C(c1cnn2c1OCCC2)N(CCO)C1CCCCC1	i
O=C(Nc1ccccc1Cl)c1cc2c(=O)n3ccccc3nc2n1Cc1ccccc1	i
COc1ccc2c(c1)c(CC(=O)NOCc1ccccc1)c(C)n2C(=O)c1ccc(Cl)cc1	i
CCc1noc(-c2ccc(SCC(=O)N3CCN(c4ccccc4)CC3)nc2)n1	i
CCCCC(=O)Nc1cc(C)nn1-c1nc(-c2ccc(OCC)cc2)cs1	i
O=C(CSc1cc(N2CCCC2)ncn1)NCCCc1ccccc1	i
CCc1nc2sc(C(c3ccc(F)cc3)N3CCN(C(C)=O)CC3)c(O)n2n1 (centres undefined)	i
COC(=O)N1CCc2ccccc2C1C(=O)NCc1ccco1 (centres undefined)	i
CCCCn1c(=O)c2ccccc2n(Cc2nc(-c3ccc4c(c3)OCO4)no2)c1=O	i
C/C(=C\C(=O)OCCCCCCCCC(=O)O)C[C@@H]1OC[C@H](C[C@@H]2O[C@H]2[C@@H](C)[C@H](C)O)[C@@H](O)[C@H]1O	i
CCn1c(SCC(=O)N2CCCCC2)nc2c(-c3ccc(C)cc3)csc2c1=O	i
O=C(NCCS(=O)(=O)N1CCc2ccccc2C1)c1ccc2c(c1)OCO2	i
O=C(CC1CCCC1)N1CCC(COCc2ccc(Cl)cc2)CC1	i
CCc1ccc(Oc2cc(N3CCC(C(=O)N4CCCCC4)CC3)ncn2)cc1	i
Cc1ccc(-n2ncc3c(=O)n(Cc4nc(-c5ccc(OC(C)C)cc5)no4)cnc32)cc1	i
COc1cccc(N2C(=O)/C(=C/c3ccncc3)SC2=S)c1	i
Cc1ccc(N2CCCS2(=O)=O)cc1NC(=O)c1ccsc1	i
CCCCc1nnc2c(N(C)S(=O)(=O)c3ccc(OC)cc3)nc3ccccc3n12	i
Cc1cc(-c2nnc(NC(=O)C3CCN(S(=O)(=O)c4ccc(Cl)s4)CC3)o2)c(C)o1	i
O=C(NCCCS(=O)(=O)N1CCN(c2ncccn2)CC1)c1ccncc1	i
Cc1cc(NC(=O)c2cc(C)on2)n(-c2nc3ccccc3s2)n1	i
COC(=O)c1sccc1S(=O)(=O)N1CCC(C(=O)Nc2nccs2)CC1	i
O=C(Cn1nc(-c2cccs2)ccc1=O)NCc1ccc2c(c1)OCO2	i
COc1c[nH]c(C(=O)Nc2ccc3c(c2)OCO3)cc1=O	i
COc1ccc(C2(CNC(=O)CCc3c(C)noc3C)CCOCC2)cc1	i
NS(=O)(=O)c1ccc(CCNC(=O)c2cn(CC(O)c3cccs3)nn2)cc1 (centres undefined)	i
Cc1cc(C(=O)N2CCC(CSc3nccn3C)CC2)no1	i
Cn1cccc1CN(Cc1cccs1)C(=O)c1cc(-c2ccccc2)on1	i
Cc1nn(-c2ncc(NC(=O)c3cccc(Cl)c3)cn2)c(C)c1C	i

Of the compounds above, 2 contain an NH in an aromatic ring:
SMILES	GIRK2 activ
COc1ccccc1N1CCN(C(=O)CCn2cnc3c([nH]c4ccc(C)cc43)c2=O)CC1	i
COc1c[nH]c(C(=O)Nc2ccc3c(c2)OCO3)cc1=O	i

Other compounds follow.
SMILES	GIRK2 activ
Cc1ccc(C(=O)Nc2ccc(N3CCCS3(=O)=O)cc2)cc1C	i
Cc1nc(-n2cccc2)sc1C(=O)N1CCC(Oc2ccc(Cl)cn2)CC1	i
Cc1c(OCC(F)(F)F)ccnc1CS(=O)c1nc2ccccc2[nH]1 (centres undefined)	i
COc1ccccc1C(=O)NCc1cc(-c2ccncc2)n(C2CCCC2)n1	i
Cc1nc(SCc2ccccc2)[nH]c(=O)c1CC(=O)Nc1ccc(C(C)C)cc1	i
O=C(Cn1cc(S(=O)(=O)N2CCCC2)ccc1=O)Nc1ccc2c(c1)OCCO2	i
O=C(NCCc1ccoc1)C(=O)NC1CC1	i
CCC(C(=O)N1CCN(Cc2nc(-c3ccc(OC)cc3)cs2)CC1)c1ccccc1 (centres undefined)	i
CCCCc1nc2cc(/C=C/C(=O)NO)ccc2n1CCN(CC)CC	i
COc1cccc(CC(=O)NC2CC(=O)N(C3CC3)C2)c1 (centres undefined)	i
Cc1cc(NC(=O)c2cnc3ccccc3n2)ccc1N1CCCC1=O	i
Cn1nc(-c2ccc(F)cc2)cc1C(=O)NCC(C)(O)c1ccccc1 (centres undefined)	i
O=C1OC2(c3ccc(O)cc3Oc3cc(OS(=O)(=O)c4c(F)c(F)c(F)c(F)c4F)ccc32)c2ccccc21 (centres undefined)	i
CCOCCn1c(=O)c2c(nc3n(-c4cccc(C)c4C)c(C)c(C)n23)n(C)c1=O	i
COc1ncccc1C(=O)NCc1nnc(C)o1	i
O=C(/C=C/c1cccs1)N1CCN(CC(O)c2ccco2)CC1 (centres undefined)	i
CC(C)c1cc(-c2nc(-c3ccc(Br)cc3)no2)n[nH]1	i
O=C(NCC(O)c1cccc2ccccc12)c1ccccc1Cl (centres undefined)	i
Cc1noc(C2CCN(C(=O)Nc3cccs3)CC2)n1	i
COc1ccc(CNC(=O)CCCn2cccc2)cc1	i
O=C(NC(=S)N1CCOCC1)C12CC3CCC(CC(C3)C1)C2	i
Cn1c(=O)[nH]c(=O)c2c1nc(NCCN1CCOCC1)n2Cc1cccc2ccccc12	i
Cn1nc(-c2ccc(F)cc2)cc1C(=O)N1CCOCC1CO (centres undefined)	i
COc1ccc(C2CC3C4NN=C(SCC(=O)Nc5cccc(OC)c5)N4C=CN3N2)cc1 (centres undefined)	i
Cn1cccc1CN(Cc1cccs1)C(=O)c1cccc(C#N)c1	i
COc1ccc(-c2coc3cc(OCCN4CCC(C(N)=O)CC4)ccc3c2=O)cc1	i
Cc1cccc(-c2c(NC(=O)c3ccco3)oc3c(C)cccc3c2=O)c1	i
CS(=O)(=O)N1CCCc2ccc(NS(=O)(=O)c3ccccc3)cc21	i
O=C(C(=O)N1CCC(Oc2cnccn2)CC1)c1c[nH]c2ccccc12	i
O=C(NCCOc1ccc(F)cc1)C1CCCN(c2ccc(-c3ccco3)nn2)C1 (centres undefined)	i

Taken from the results shown for reference:
SMILES	GIRK2 activ
Cc1ccc(C(=O)Nc2ccc(N3CCCS3(=O)=O)cc2)cc1C	i
Cc1nc(-n2cccc2)sc1C(=O)N1CCC(Oc2ccc(Cl)cn2)CC1	i
Cc1c(OCC(F)(F)F)ccnc1CS(=O)c1nc2ccccc2[nH]1 (centres undefined)	i

(list continues)
SMILES	GIRK2 activ
O=C(NCc1ccc(Cl)cc1)N(CC(F)(F)F)C1CCOCC1	i
COc1ccc(C(=O)Nc2ccc3c(c2)CCC(=O)N3CCC(C)C)c(OC)c1OC	i
COc1ccc(-n2nnc(C(=O)NC(c3ccccc3)c3ccccc3)c2N)cc1	i
Cc1cc(O)c(C)c2c1Oc1c(C)c(O)cc(C)c1C(=O)O2	i
CC(=O)Nc1ccc(NC(=O)c2nnn(-c3ccc(Cl)cc3)c2C(C)C)cc1	i
CC(=O)NC1=NN(C(C)=O)C2(S1)C(=O)N(CC(C)C)c1c(C)cc(C)cc12 (centres undefined)	i
Cc1cc(NCCCN(C)C)n2nc(C)c(-c3ccc(Cl)cc3)c2n1	i
Cn1c(C(F)(F)F)nn(CCNC(=O)c2ccsc2)c1=O	i
O=C(Cn1[nH]c(-c2ccc(F)cc2)cc1=O)Nc1ccc(Cl)cc1	i
O=C(NCCC(O)c1ccoc1)c1ccc(F)c(F)c1 (centres undefined)	i
CC(C)CCOc1ccc(CN)cc1	i
O=C(Cc1cccs1)Nc1ccc(-n2nnc(C(=O)N3CCCC3)n2)cc1	i
COc1cccc(CN(c2cc(F)cc(F)c2)S(=O)(=O)c2ccc3nnc(C)n3c2)c1	i
CCOC(=O)CN1CN(c2ccc(C)cc2)c2ncccc2S1(=O)=O	i
COC(=O)c1ccc(S(=O)(=O)NCC2COC3(CCCCC3)O2)cc1 (centres undefined)	i
Cn1cc(C(=O)NCCc2cccs2)c(S(=O)(=O)N2CCN(c3cccc(Cl)c3)CC2)n1	i
COc1ccc(-c2n[nH]n3c2nc(=O)c2ccc(C(=O)NCc4ccc(SC)cc4)cc23)cc1	i
COc1ccc(CC(=O)Nc2c(C)nc(N3CCCC3)nc2C)cc1	i
Cc1ccccc1NC(=O)N(CCc1cccs1)Cc1ccoc1	i
CSc1ccc(CNC(=O)C2CCN(c3ncnc4c3oc3ccccc34)CC2)cc1	i
CCOc1ccccc1NC(=O)COc1nc(C)nc2ccccc12	i
O=C(Nc1cccs1)N1CCC(Oc2ccccn2)CC1	i
COc1ccccc1NC(=O)Cn1ncn2c(C)c(C(=O)NCc3ccc(C)cc3)c(C)c2c1=O	i
Cn1c(-c2cc3ccc(OC(=O)C(C)(C)C)cc3oc2=O)nc2ccccc21	i
CCCNC(C)C(=O)Nc1ccccc1C (centres undefined)	i
N#Cc1ccc(COCC2CCN(S(=O)(=O)c3ccc4ccccc4c3)CC2)cc1	i
O=C(NC(c1ccccc1)c1ccccc1)N1CCOC2(CCOCC2)C1	i
O=C(Cn1c2ccccc2c2ncn(Cc3nc(C4CC4)no3)c(=O)c21)Nc1ccc(F)c(Cl)c1	i
CCC(C)Nc1oc(-c2ccc(COc3ccc(OC)cc3)o2)nc1C#N (centres undefined)	i
O=C(c1ccccc1Br)N1CCN(c2ccc(Cl)cc2)CC1	i

Fetched by compound from above (two):
SMILES	GIRK2 activ
O=C(Nc1cccs1)N1CCC(Oc2ccccn2)CC1	i
CCC(C)Nc1oc(-c2ccc(COc3ccc(OC)cc3)o2)nc1C#N (centres undefined)	i

(further entries)
SMILES	GIRK2 activ
O=C(Cc1cccs1)NCCn1ncc2c(N3CCCCC3)ncnc21	i
CNC(=O)c1csc(Nc2nc(C)cc(C)n2)n1	i
O=C(NCC(F)(F)F)c1nnn(-c2ccc(NC(=O)c3ccc(F)cc3Cl)cc2)n1	i
COc1ccc(SCCCC(=O)Nc2cccc(Cl)c2Cl)cc1	i
Cc1ccc(C)c(C2CC3C4NN=C(CCC(=O)NCCc5ccc(Cl)cc5)N4C=CN3N2)c1 (centres undefined)	i
CC(C)c1ccc(OCC(=O)Nc2cc(N3CCOCC3)ncn2)cc1	i
CS(=O)(=O)Nc1cccc(NC(=O)CSc2nnc(CCc3nc4ccccc4s3)o2)c1	i
CCCCCn1c(=S)[nH]c2cc(C(=O)Nc3ccc(C)c(C)c3)ccc2c1=O	i
O=C(NCC1(O)CCOc2ccccc21)C(=O)Nc1ccc2c(c1)CCCN2C(=O)c1cccs1 (centres undefined)	i
CC(=O)N1CCN(c2ccnc3c2c(=O)n(Cc2cccc(C)c2)c(=O)n3C)CC1	i
COc1ccc(-n2c(C)c(C)n3c4c(=O)n(CCc5ccccc5)c(=O)n(C)c4nc23)cc1	i
CC(O)(CCc1ccccc1)CNC(=O)C1CC(=O)N(c2ccc(Cl)cc2)C1 (centres undefined)	i
Cc1cccn2c(=O)c3cc(C(=O)NCCCOC(C)C)n(Cc4ccccc4)c3nc12	i
COc1cc(C(=O)N2CCC3(CC2)NC(=O)c2cc(F)ccc2N3C)cc(OC)c1OC	i
c1ccc(Oc2ccc(Nc3ncnc4[nH]ncc34)cc2)cc1	i
C=CCN1CC(c2nc3ccccc3n2Cc2ccc(C)cc2)CC1=O (centres undefined)	i
CCSc1ccccc1C(=O)N1CCC(Oc2cnccn2)CC1	i
CCCN1CCc2nc(SCc3nc(-c4cccc(Cl)c4)oc3C)[nH]c(=O)c2C1	i
Cc1cc(CN2CCC(CNC(=O)c3ccsc3)CC2)c(C)o1	i
O=C(c1ccc2c(c1)OCO2)N1CCC(CSc2ccccn2)CC1	i
Cn1c(=O)c2cc(C(=O)NCC(=O)c3ccccc3)n(Cc3ccccc3)c2n(C)c1=O	i
C#CCn1c(=NC(=O)CCS(=O)(=O)Cc2ccccc2)sc2cc3c(cc21)OCO3	i
Cc1nc(-c2cccc(NC(=O)C3CCCCC3)c2)cs1	i
COc1ccc(S(=O)(=O)N2CCCOC2CNC(=O)C(=O)NC2CCCC2)cc1 (centres undefined)	i
Cc1nc2ccccn2c1C(=O)NCCC1CCCCN1S(=O)(=O)c1cccs1 (centres undefined)	i
Cc1noc(C)c1CCC(=O)Nc1cc(N2CCOCC2)ncn1	i
CCCCN(C)c1ncc(S(=O)(=O)c2ccccc2)c(N)n1	i
COc1cccc(NC(=O)CSc2nnc(-c3ccc(OC)c(OC)c3)n2N)c1	i
COCCOCC1CCN(C(=O)c2ccc(-n3cccc3)cc2)CC1	i
Cc1ccc(NC(=O)C(=O)NCCCN2CCN(c3ccccc3)CC2)cc1C	i

Next part
SMILES	GIRK2 activ
O=C(Cn1c(=O)[nH]c2c(-c3ccccc3F)c[nH]c2c1=O)NCc1ccccc1Cl	i
Cn1cc(C(=O)NCc2ccc(Cl)cc2)nn1	i
Cc1ccc(-c2nnc(NC(=O)c3ccc(S(=O)(=O)N4CCc5ccccc5C4)cc3)o2)cc1C	i
COc1ccc(CCNC(=O)Cn2c(=O)n(-c3ccc(C)cc3)c(=O)c3ccccc32)cc1OC	i
Cc1nc(-c2ccccc2)sc1C(=O)Nc1cnc(N(C)C)nc1	i
COc1ccc(-c2cnc(N)nc2-c2ccc(OCc3ccccc3C)cc2O)cc1	i
COc1ccc(-c2nonc2NC(=O)c2cccc(C)c2)cc1OC	i
O=C(Nc1cccc(C(F)(F)F)c1)N1CCC2(CC1)OCCS2	i
COc1cc2nc(SCC(N)=O)n3nc(CCn4c(C)nc5ccccc54)nc3c2cc1OC	i
COc1ccccc1C(O)Cn1cc(C(=O)Nc2cccc(Cl)c2F)nn1 (centres undefined)	i
O=C(NCC1(CO)CC1)Nc1ccccc1F	i
COCCCNC(=O)/C(C#N)=C1\N=C(NC(=O)c2cccc(Cl)c2)c2ccccc21	i

High-throughput results from PubChem.

An excerpt. The share of hits here may be higher or lower than overall.
